# NPYLR7 ag – activates Aedes aegypti NPYLR7 receptor; HEK293T NPYLR7/Galpha15, GCaMP6s calcium fluorescence; 270,000 compounds, 0.15% hits; AID 1259423; activation, % at 10 µM; in the data active means activation above about 40%;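 further: 0% = vehicle and 100% = reference agonist at the receptor; some compounds past the cut are filed as inactive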
# NPYLR7 ag max-min – recorded beside NPYLR7 ag, whose call it bears; activation, %; measured here: Max-Min RFU normalised activation; some inactives read as strong as hits;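 span of the calcium signal over five minutes; 0% = vehicle and 100% = native peptide agonist; compound fluorescence can raise it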
# An asterisk follows results filed as active. Only part of the results is shown. The share of hits here may be higher or lower than overall.
SMILES,NPYLR7 ag,NPYLR7 ag max-min
C=CCc1ccc(OCCn2c(C3CC(=O)N(CC=C)C3)nc3ccccc32)c(OC)c1 (stereo not given),1.6,1.2
CC(=O)N1CCc2cc(NC(=O)CN(CCC(N)=O)Cc3ccccc3)ccc21,-13.4,-14.6
O=C(NC[C@H](O)c1ccccc1)c1ccccc1,2.9,2.3
COc1ccc(C(=O)COC(=O)c2ccc(C)o2)cc1,13.8,8.2
Cc1cc(NC2CCCCNC2=O)n2c(nc3ccccc32)c1C#N (stereo not given),-2.5,-3.0
O=C(CN1CCOCC1)Nc1ncc(Cc2ccccc2Cl)s1,-0.4,5.4
CN(Cc1cccnc1)C(=O)c1cc(COc2ccc3c(c2)CCCC3)on1,5.4,-1.2
CCC1CN(C(=O)NCCCCOC)CCS1 (stereo not given),-0.3,-3.1
CCOC(=O)c1ccc2c(c1)nc(SCC(=O)NCC1CCCO1)n2Cc1cccc(F)c1 (stereo not given),4.8,3.6
COc1ccc(C(=O)NC(C(=O)N2CCCCC2)C2CCN(C(=O)Cc3ccccc3)CC2)cc1 (stereo not given),5.0,2.7
COc1ccc(NC(=O)c2nn(-c3ccccc3C)c(=O)cc2OC)cc1,2.1,3.8
C=CCN(CC1CC(c2ccc(Cl)c(Cl)c2)=NO1)C(=O)c1cccc(F)c1 (stereo not given),31.6,26.6
COc1ccc(-c2cnc3ncnn3c2N2CCCN(C(=O)c3cccc(Cl)c3)CC2)cc1,-1.4,-3.5
CN(C)c1ccc(-c2ccnc3c2CC(C)(C(=O)NCc2ccccc2)O3)cc1 (stereo not given),4.1,18.4
COc1cccc(C2c3c(cc(C)oc3=O)OC(=N)C2C#N)c1OC (stereo not given),4.2,-4.2
O=C(CCN1CCN(c2ccccc2)CC1)NCc1ccc(=O)[nH]c1,5.3,2.9
COc1cc(CNC(=O)c2c(C)noc2-c2cccc(C(F)(F)F)c2)cc(OC)c1,10.3,3.6
CN(CCN1CCCCC1)C(=O)Cn1nnnc1CN1CCOCC1,-0.2,-1.0
Cc1cc(-c2ccccc2)nc2cc(C(=O)N3CCOCC3)nn12,-9.6,-13.5
COc1cccc(C2c3c(oc4cc(C)c(C)cc4c3=O)C(=O)N2c2cc(C)on2)c1 (stereo not given),8.2,5.3
Cc1cnc(CNC(=O)CC(c2ccccc2)c2ccc3c(c2)OCO3)cn1 (stereo not given),5.7,4.5
COc1ccc(Nc2nc(NCCCn3ccnc3)nc3[nH]ncc23)cc1,1.4,0.6
CC1(C)CC(=O)CC(=NNC(=O)C2CCN(S(=O)(=O)c3cccs3)CC2)C1,-8.7,-13.6
c1ccc(-n2nnnc2CSc2ncn[nH]2)cc1,3.2,0.1
Oc1ccc(N2CCN(C(=S)NCCN3CCOCC3)CC2)cc1,1.5,-0.3
CC(C)c1csc(CN2CCCC(CNS(=O)(=O)c3cccc4cccnc34)C2)n1 (stereo not given),11.4,0.3
CCN(CC)CCN1CCN(c2cncc(-c3cccc4ccccc34)n2)CC1,-6.8,-9.0
CC(C)C(=O)NCc1ccc(-c2ccc(Br)cc2)o1,1.6,4.6
Cc1cc(NC(=O)C(C)Oc2ccccc2)n(-c2nc3c(c(=O)[nH]2)CCC3)n1 (stereo not given),1.7,-1.7
Cc1cc(C)c2cc(C(=O)OC(C)C(=O)N3CCCCCC3)[nH]c2c1 (stereo not given),4.8,2.2
O=C(N/N=C\c1cccc(O)c1)c1cc(-c2ccccc2)nc2ccccc12,8.4,11.7
CCOc1cc(C#N)ccc1OCC(=O)N1CCC(C(N)=O)CC1,6.9,6.2
CCC(C)(C)c1ccc(S(=O)(=O)N2CCC(c3nc(-c4ccc(OC)cc4)no3)CC2)cc1,25.1,18.1
Cn1ccn2ncc(C(=O)NCCC(=O)Nc3nccs3)c12,18.4,6.6
O=C(O)c1cc(=O)c2cc(Cl)ccc2o1,1.0,1.2
Cc1nc2ccccc2n1Cc1cc(C(=O)NCCN(C)C)n[nH]1,17.1,7.0
CC(NC(=O)CSc1nnc(-c2ccccc2)n1C)C1CC1 (stereo not given),-0.9,-1.8
O=C1/C(=C/c2ccc(-c3ccc([N+](=O)[O-])cc3)o2)C=C(c2ccccc2)N1c1ccc(F)cc1,-0.4,3.0
O=C(Nc1cccc(F)c1)N1CCc2c([nH]c3ccccc23)C1c1ccc([N+](=O)[O-])c(Cl)c1 (stereo not given),2.2,-1.7
COc1cc(-n2cnnn2)c(Cl)cc1C(=O)NCCC1CCCO1 (stereo not given),0.1,6.0

# Arranged by number of heavy atoms (low to high): 16 of the compounds above.
SMILES,NPYLR7 ag,NPYLR7 ag max-min
O=C(O)c1cc(=O)c2cc(Cl)ccc2o1,1.0,1.2
CCC1CN(C(=O)NCCCCOC)CCS1 (stereo not given),-0.3,-3.1
O=C(NC[C@H](O)c1ccccc1)c1ccccc1,2.9,2.3
COc1ccc(C(=O)COC(=O)c2ccc(C)o2)cc1,13.8,8.2
Cn1ccn2ncc(C(=O)NCCC(=O)Nc3nccs3)c12,18.4,6.6
O=C(CN1CCOCC1)Nc1ncc(Cc2ccccc2Cl)s1,-0.4,5.4
CCOc1cc(C#N)ccc1OCC(=O)N1CCC(C(N)=O)CC1,6.9,6.2
COc1cccc(C2c3c(cc(C)oc3=O)OC(=N)C2C#N)c1OC (stereo not given),4.2,-4.2
C=CCN(CC1CC(c2ccc(Cl)c(Cl)c2)=NO1)C(=O)c1cccc(F)c1 (stereo not given),31.6,26.6
Cc1cnc(CNC(=O)CC(c2ccccc2)c2ccc3c(c2)OCO3)cn1 (stereo not given),5.7,4.5
CCN(CC)CCN1CCN(c2cncc(-c3cccc4ccccc34)n2)CC1,-6.8,-9.0
COc1cc(CNC(=O)c2c(C)noc2-c2cccc(C(F)(F)F)c2)cc(OC)c1,10.3,3.6
C=CCc1ccc(OCCn2c(C3CC(=O)N(CC=C)C3)nc3ccccc32)c(OC)c1 (stereo not given),1.6,1.2
O=C(Nc1cccc(F)c1)N1CCc2c([nH]c3ccccc23)C1c1ccc([N+](=O)[O-])c(Cl)c1 (stereo not given),2.2,-1.7
O=C1/C(=C/c2ccc(-c3ccc([N+](=O)[O-])cc3)o2)C=C(c2ccccc2)N1c1ccc(F)cc1,-0.4,3.0
COc1ccc(C(=O)NC(C(=O)N2CCCCC2)C2CCN(C(=O)Cc3ccccc3)CC2)cc1 (stereo not given),5.0,2.7

# The list goes on.
SMILES,NPYLR7 ag,NPYLR7 ag max-min
C=CCn1ncc(CO)c1C,0.3,8.0
Nc1nc(CSc2ccccn2)nc(Nc2ccccc2)n1,12.4,6.1
Cc1cc(C)cc(NC(=O)Cn2nnc(C(=O)NCCc3ccccc3)c2N)c1,8.9,2.1
CCN(CCN1CCOCC1)C(=O)c1cc2ccccc2o1,-4.6,-6.0
O=C(CC12CC3CC(CC(C3)C1)C2)NN=C1CCCC1,-5.1,-5.6
CCOc1cccc2cc(-c3nc4ccccc4[nH]3)c(=Nc3ccc(-c4ccccc4)cc3)oc12,14.2,11.5
Cc1nc2n(n1)C(=O)C(C(c1ccco1)N1CCCC(C)C1)S2 (stereo not given),-11.3,-10.4
COC(=O)c1ccc2c(c1)nc(N1CCC3(CCCO3)CC1)n2C,4.9,3.8
CC(=O)c1c(C)[nH]c(C(=O)C(C#N)=Cc2ccc(Br)s2)c1C,1.9,3.0
O=C1COc2cc(NCc3ccccc3C(F)(F)F)c(Cl)cc2N1,3.5,0.8
COCCOC(=O)C1=C(C)NC(=S)NC1c1cccs1 (stereo not given),2.6,2.1
CCNC(=O)C1CCCN(c2nc3c(-c4ccc(C)cc4)csc3c(=O)[nH]2)C1 (stereo not given),-8.6,-10.4
Cc1[nH]nc(-c2ccc(OCCN3CCC(C(N)=O)CC3)cc2O)c1-c1ccc(Cl)cc1,0.8,-1.6
CCOC(=O)CSc1nnc2ccc(-c3cccnc3)nn12,-16.2,-10.5
O=C(CSc1nc2cc(Cl)ccc2o1)N1CCCC1,9.4,12.3
Brc1ccc(NN=C(N=Nc2nn[nH]n2)c2ccccc2)cc1,-2.6,-2.7
N#CC(=Cc1cccs1)S(=O)(=O)c1ccc(Br)cc1,7.7,17.1
COc1cc(NC(=O)Nc2c(C)nc3ccc(C)cn3c2=O)cc(OC)c1,-0.5,-2.5
COC(=O)c1ccc(COc2cccn3c(N(C)Cc4ccc(OC)cc4)c(C)nc23)cc1,8.1,0.0
O=C(CC1=CCCCC1)N1CCCC(CNS(=O)(=O)c2cccs2)C1 (stereo not given),8.4,4.0
CCc1[nH]n(C(C)(C)C)c(=O)c1C1=C(N2CCOCC2)C(=O)N(c2cccc(C)c2)C1=O,17.9,3.3
Cc1cccc(C(=O)Nc2ccc3[nH]cc(CCN4CCN(c5cccc(C(F)(F)F)c5)CC4)c3c2)c1,0.3,-9.1
Cc1nn(C)c(C)c1C(=O)N1CCN(S(=O)(=O)c2cc(Cl)ccc2Cl)CC1,1.4,-1.1
Cc1ccc(C=C2SC(=S)N(Cc3ccco3)C2=O)s1,3.5,0.9
O=C(Nc1ccc(S(=O)(=O)NC2CC2)cc1)c1oc2ccccc2c1CSCc1ccccc1,6.2,1.7
Cc1cc(C=C2C(=O)Nc3ccccc32)c(C)n1-c1ccc(Cl)cc1,-4.3,-10.6
Cc1ccc(Oc2ncccc2CNc2cc(C)c3ccccc3n2)cn1,-5.0,-0.9
Cc1cc(Oc2cccc(C(C)C)c2)nc(SCc2ccccc2C)n1,22.7,27.7
COC(=O)c1cc(Cn2cccc(C(F)(F)F)c2=O)c(C)s1,0.3,-0.9
COc1cccc(N2C(=O)/C(=C/c3ccc(OC)c(Br)c3)C=C2c2ccccc2)c1,-0.3,4.1
C(=C\c1ccco1)/CN1CCCn2cncc2C1,6.0,1.7
CCOC(=O)CCc1c(C)c2ccc(OCc3ccc(C(=O)OC)cc3)c(C)c2oc1=O,-7.8,-11.6
Cc1ccc(CN(CCc2ccccc2)C(=O)CN(CCN2CCOCC2)Cc2cccc(F)c2F)o1,-3.0,1.4
O=C(C1CCCC1)N1CCCC(OCc2ccc(F)c(F)c2)C1 (stereo not given),-4.7,-4.0
COCc1c(C(=O)Nc2ccc(C(=O)OC)cc2)oc2ccccc12,2.0,7.7
Cc1ccsc1-c1nc(C(N)=O)c2[nH]c(=O)n(-c3ccc(F)cc3)c2n1,0.8,-0.9
COc1ccc(OC)c(CN2CCCn3cccc3C2c2ccc(C(F)(F)F)cc2)c1 (stereo not given),-1.4,3.5
Cc1ccsc1CN(C(=O)c1ccc(S(N)(=O)=O)cc1)C1CC1,-5.9,-13.0
COCCN(CC(=O)N1CCc2sccc2C1COc1ccccc1)C(=O)c1ccccc1F (stereo not given),-3.1,2.8
Fc1ccc(OCc2nc(-c3ccc(-n4cccc4)cc3)no2)c(F)c1,-4.7,-5.2
C=CCN(Cc1cn(-c2ccc(C)cc2)nc1-c1cccc(C)c1)C1CCS(=O)(=O)C1 (stereo not given),10.0,-4.7
Cc1ccc(C)c(OCCn2nc(C)c(C)c(C#N)c2=O)c1,11.6,4.3
CC(=O)Nc1ccc(SCc2ccc(F)cc2)nn1,2.1,0.4
O=C1CSC(=NN=Cc2ccc(F)cc2)N1,1.0,-3.4
O=C(Nc1sc2c(c1C(=O)NCC1CCCO1)CCCC2)c1cccs1 (stereo not given),12.3,7.2
O=C(O)c1cccc(NCN2C(=O)c3cccc([N+](=O)[O-])c3C2=O)c1,3.3,0.6
CNC(=O)C1CCCN1C(=O)c1ncc(C(C)(C)C)o1 (stereo not given),-1.4,-1.8
O=C(Nc1ccc(N2CCOCC2)cc1)c1csc([C@@H]2O[C@H](CO)[C@H](O)[C@H](O)[C@H]2O)n1,2.5,0.3
Cc1nc2sc3c(N4CCC(C)CC4)ncnc3c2c2c1COC(C)(C)C2,8.0,-0.3
Cn1c(=O)[nH]c(=O)c2c1nc(SCC(=O)OCc1ccccc1)n2Cc1ccccc1Cl,-2.5,-3.6
# The listing continues:
SMILES,NPYLR7 ag,NPYLR7 ag max-min
CC(c1cccs1)N(C)Cc1cnc(-c2ccco2)nc1 (stereo not given),9.7,5.2
COCCNC(=O)CCN(CCc1ccccc1)c1nc(-c2ccc(Cl)cc2)nc2ccccc12,-15.0,-0.3
Nc1cc(=O)[nH]c2nnc(SCc3nnnn3-c3ccccc3)n12,-0.9,-3.4
O=C(c1c(F)cccc1F)N1CCC(c2nc(-c3ccc(Cl)cc3)no2)CC1,6.8,1.8
Clc1ccccc1CSc1nncn1NC/C=C/c1ccccc1,7.3,14.0
CCc1cccc2c(C(CC(=O)NCc3ccccn3)c3ccc(OC)c(OC)c3)c[nH]c12 (stereo not given),4.8,15.5
NC(=O)c1ccc(CN2CCC(C(=O)N3CCCCCC3)CC2)cc1,-2.6,-3.7
CC(NC(=O)CN1CCCC(C(=O)N2CCOCC2)C1)c1ccc2c(c1)CCCC2 (stereo not given),5.3,2.8
O=C(c1cc(-c2ccccn2)n[nH]1)N1CCC(C(O)(c2ccccc2)c2ccccc2)CC1,-6.0,-9.0
Cc1noc(-c2ccc(C(C)(C)C)cc2)c1C(=O)NCc1cccnc1,4.1,11.8
CC(=O)N1CCN(c2ccnc3c2c(=O)n(CC(=O)N(C(C)C)C(C)C)c(=O)n3C)CC1,0.5,-1.5
CC(=O)Nc1ccc(NC(=O)Cn2nc(-c3ccc(Br)cc3)ccc2=O)cc1,7.9,0.8
FC(F)Oc1ccc(-c2csc(=Nc3cccnc3)n2CC2CCCO2)cc1 (stereo not given),1.8,8.8
Cc1ccc(-c2nnc(CNCC3OCCc4ccccc43)o2)n1C (stereo not given),3.5,-0.4
CCOc1cc(C#N)ccc1Oc1ccc(S(N)(=O)=O)cc1C(=O)O,-2.7,-2.7
Cc1nn(-c2ccc(Cl)nn2)c2c1C(c1ccccc1F)CC(=O)N2 (stereo not given),-5.7,-7.3
Cc1cccc(COCC2CN(C(=O)c3ccccc3C#N)CCO2)c1 (stereo not given),-15.9,-4.4
CSc1ccccc1C(=O)NC1CC(=O)N(Cc2cccc(F)c2)C1 (stereo not given),6.2,5.4
FC(F)Sc1ccc(NC(=S)NCCCn2ccnc2)cc1,0.4,-3.7
Cc1ccc(C)c(Cn2c(=O)c3c(nc4n(CCCN(C)C)c(C)cn34)n(C)c2=O)c1,-5.4,-5.7
